# rRNA inh HTS – inhibitors of bacterial rRNA selective over humanized ribosomes | E. coli WT GFP vs humanized-ribosome RFP mutants, fluorescence, 24 h; stronger effect = lower value; DMSO median 0, no signal -100 | GFP signal change (wild-type ribosome), % (test concentration not listed) | 1.6% of 350,000 active | AID 720706;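 active = significant combined selectivity score with lowered wild-type GFP, culture density cut under 30%, mutant RFP and density less affected; inactive = any of these conditions unmet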; note: one replicate is shown; some compounds called inactive have numbers as strong as hits
# FGF22 binding – binders of recombinant human FGF22 by thermal shift | calls only at 9.99 µM | SYPRO orange fluorescence; percent of sucrose octasulfate shift, DMSO zero | Q9HCT0 | 1.5% of 340,000 active;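 active = melting point raised past a set limit in the mean and every replicate; three in four hits are not shown here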
# Target sequence (Q9HCT0 whole entry, looked up): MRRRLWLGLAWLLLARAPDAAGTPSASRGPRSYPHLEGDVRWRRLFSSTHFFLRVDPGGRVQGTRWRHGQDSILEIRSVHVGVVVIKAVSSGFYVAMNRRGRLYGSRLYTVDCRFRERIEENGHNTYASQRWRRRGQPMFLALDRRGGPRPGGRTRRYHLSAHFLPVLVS
# AF4-AF9 inh – inhibitors of human MLL-AF4/AF9 interaction; inhibition, % at 10 µM; P42568; 0.47% of 350,000 active; AlphaScreen, biotin-AF4 peptide binding to FLAG-AF9;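 active = every replicate reaching a set inhibition limit, whatever the replicate mean, cut at about 25% in these data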;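 note: 0% = plate neutral control median and 100% = total signal loss; the record names both 10 and 1 µM as test concentration; the first replicate is given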
# Target sequence (P42568 whole entry, looked up): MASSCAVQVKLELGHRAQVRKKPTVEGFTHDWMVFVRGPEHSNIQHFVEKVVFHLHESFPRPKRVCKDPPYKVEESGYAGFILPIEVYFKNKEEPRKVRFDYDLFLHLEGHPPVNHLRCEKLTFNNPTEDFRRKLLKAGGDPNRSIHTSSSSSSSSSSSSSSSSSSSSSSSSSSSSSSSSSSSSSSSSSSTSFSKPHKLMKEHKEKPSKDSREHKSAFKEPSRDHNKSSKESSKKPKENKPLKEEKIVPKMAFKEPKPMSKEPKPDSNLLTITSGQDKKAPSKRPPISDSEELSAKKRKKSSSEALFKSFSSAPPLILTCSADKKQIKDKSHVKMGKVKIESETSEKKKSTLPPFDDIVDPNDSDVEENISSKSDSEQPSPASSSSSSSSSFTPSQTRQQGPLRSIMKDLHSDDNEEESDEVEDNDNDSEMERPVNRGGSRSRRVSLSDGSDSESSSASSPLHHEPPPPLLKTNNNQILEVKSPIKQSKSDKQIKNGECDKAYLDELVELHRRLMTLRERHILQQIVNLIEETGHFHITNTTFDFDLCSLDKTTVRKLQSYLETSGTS
# rRNA inh HTS OD600 – also measured in rRNA inh HTS; calls as there; OD600 change, %; measured here: OD600 growth;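 optical density of the mix in the first replicate; 0 = DMSO median and -100 = no signal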
# rRNA inh HTS RFP – further read-out of rRNA inh HTS, marked with its call; RFP signal change, %; measured here: RFP humanized mutant strains;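 first replicate; 0 = DMSO median and -100 = no signal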
# An asterisk follows results filed as active; i = inactive; · = no result given; + = active, no number; & = joins results of further samples.
SMILES,rRNA inh HTS,rRNA inh HTS OD600,rRNA inh HTS RFP,FGF22 binding,AF4-AF9 inh
OC(Cc1ccccc1Br)c1ncc(-c2ccc(Cl)cc2)[nH]1 (stereo not given),-61,-77,-23,+,1.4
O=C(/C=C/[C@H]1O[C@@H](n2cnc3c(NC(=O)c4ccccc4)ncnc32)[C@H](O)[C@@H]1O)NCCCN1CCCC1=O,15,8,1.0,i,0.6
COCC#Cc1ccc2c(c1)O[C@@H](CN(C)CC1CCOCC1)[C@@H](C)CN([C@H](C)CO)S2(=O)=O,2,4,2.4,i,-5.1
O=C(C[C@H]1C=C[C@H](NC(=O)C2CCC2)[C@H](CO)O1)NCCCN1CCOCC1,2,4,-0.4,i,-1.3
O=C(c1cccc(-c2cncc3nccn23)c1)N1CCOCC1,16,15,-0.8,i,0.8
C[C@H](CO)N1C[C@H](C)[C@H](CN(C)C)Oc2ccc(NC(=O)C3CCCCC3)cc2C1=O,3,0,0.2,i,-3.9
Fc1ccc(CCNc2ncnc3[nH]ncc23)cc1,-4,-5,-6.4,i,-0.8
Cc1cccc(C)c1-n1nnnc1C1(C)CCC(=O)N1CCc1ccccc1F (stereo not given),-2,-25,-1.2,i,1.3
Cc1cnc(C=O)c2cccc([N+](=O)[O-])c12,4,4,-1.2,i,-1.8
C[C@@H]1CN([C@H](C)CO)C(=O)Cc2cc(NC(=O)CCC(F)(F)F)ccc2O[C@H]1CN(C)CC1CCCCC1,-1,6,2.3,i,-13
S=c1[nH]nc2ccc3ccccc3n12,-3,5,-0.9,i,-1.2
CS(=O)(=O)N1[C@@H]2Cn3c(ccc(-c4cccc(F)c4)c3=O)[C@H]1[C@@H](C(=O)N1CCCCC1)[C@@H]2CO,-1,5,-0.5,i,0.8
C[C@H](O)C#Cc1ccc([C@H]2[C@H](CO)N3CCCCN(C(=O)c4ccc(F)cc4)C[C@@H]23)cc1,4,15,0.5,i,-3.2
Cc1noc(C)c1NC(=O)Nc1ccc2c(c1)C(=O)N([C@H](C)CO)C[C@@H](C)[C@H](CN(C)S(C)(=O)=O)O2,0,5,-1.8,i,-1.5
CCCN(C)C[C@H]1Oc2cc(-c3ccccc3)ccc2S(=O)(=O)N([C@@H](C)CO)C[C@H]1C,1,-1,-0.1,i,-0.9
Cc1ccc(CNC(=O)Nc2nnc([C@H]3C[C@H](O)[C@@H](CO)O3)s2)cc1,2,10,1.3,i,-2.6
C[C@@H]1CN([C@H](C)CO)C(=O)c2cc(NC(=O)Nc3ccccc3)ccc2O[C@@H](C)CCCCO[C@@H]1CN(C)S(=O)(=O)c1ccccc1,-3,2,-4.1,i,-2.9
C[C@H](CO)N1C[C@H](C)[C@H](CN(C)C(=O)Nc2ccc(C(F)(F)F)cc2)Oc2c(NC(=O)Nc3ccc(F)cc3)cccc2C1=O,0,5,-4.5,i,-9.9
CC(C)NC(=O)N(C)C[C@@H]1OCc2cn(nn2)CCCC(=O)N([C@@H](C)CO)C[C@H]1C,3&1,2&10,0.9&-2.1,i,1.4&-0.3
O=C(C[C@H]1C[C@@H]2c3cc(NC(=O)c4cccnc4)ccc3O[C@@H]2[C@H](CO)O1)NCC1CC1,0,8,-3.1,i,-1.1
CC(C)CC#Cc1cnc2c(c1)C(=O)N([C@H](C)CO)C[C@H](C)[C@H](CN(C)C(=O)c1ccccc1F)O2,3,-1,2.5,i,-2.6
CC1(C)CC(=O)C2=C(C1)OC1=C(C(=O)CC(C)(C)C1)C2c1ccccc1Cl,23,28,1.2,i,-2.1
C[C@@H]1CN([C@@H](C)CO)C(=O)c2cc(NC(=O)Nc3ccc(C(F)(F)F)cc3)ccc2O[C@@H](C)CCCCO[C@H]1CN(C)Cc1ccc(Cl)c(Cl)c1,0,12,0.4,i,-0.4
C/C=C/c1ccc2c(c1)O[C@H](CN(C)CCC)[C@H](C)CN([C@@H](C)CO)S2(=O)=O,4,17,-0.5,i,2.1
COc1ccc(NC(=O)Nc2ccc3c(c2)[C@@H]2C[C@H](CC(=O)NCCc4ccccc4)O[C@@H](CO)[C@@H]2O3)cc1,-2,3,0.3,i,-5.2
C[C@H]1CN([C@@H](C)CO)S(=O)(=O)c2ccc(C#CC3CC3)cc2O[C@H]1CN(C)C(=O)CN(C)C,-1,2,0.7,i,5.3
CO[C@H]1CN(C)C(=O)c2cc(NC(=O)Nc3cccc(F)c3)ccc2OC[C@H](C)N(C)C[C@@H]1C,-2,-3,-0.6,i,5.4
CCCN(C)C[C@H]1Oc2ncc(-c3ccccc3F)cc2C(=O)N([C@@H](C)CO)C[C@H]1C,-1,14,-2.1,i,0.0
CC1(Oc2cccc(F)c2)CCN(Cc2ccccc2OC(F)F)C1 (stereo not given),7,20,2.6,i,0.8
C[C@@H]1CN([C@H](C)CO)S(=O)(=O)c2ccc(-c3ccc(F)cc3)cc2O[C@H]1CN(C)C(=O)C1CCCCC1,-11,-21,7.5,i,5.0
CN(C)C(=O)c1ccc(-c2ccc([C@@H]3[C@@H](C#N)N(S(C)(=O)=O)[C@H]3CO)cc2)cc1,-1,4,-3.5,i,0.5
CC1(C(=O)NS(=O)(=O)Cc2cccc(Cl)c2)CCN1C(=O)c1ccc(C2CCCCC2)cc1 (stereo not given),-5,-9,0.4,i,0.1
O=C(C[C@H]1C=C[C@H](NC(=O)CN2CCOCC2)[C@@H](CO)O1)NC1CCC1,5,4,-2.3,i,-1.2
Cc1ccc(S(=O)(=O)N(C)C[C@@H]2OCCCC[C@@H](C)Oc3ccc(NC(=O)Nc4c(C)noc4C)cc3C(=O)N([C@H](C)CO)C[C@@H]2C)cc1,1,4,1.1,i,-1.4
C=CCn1c(C)nnc1SCC(=O)N1c2ccccc2NC(=O)C1(C)C,8,9,-1.4,·,-6.5
COc1ccccc1OCCSc1nc2ccccc2n1CC(=O)O,25,22,4.8,i,-0.2
COc1ccc2c3c([nH]c2c1)[C@H](CO)N(Cc1ccccc1F)CC31CCN(C)CC1,4,10,3.6,i,16
CCCN(C)C[C@H]1Oc2cc(C#Cc3ccncc3)ccc2S(=O)(=O)N([C@@H](C)CO)C[C@H]1C,2,1,1.8,i,-0.2
O=C(C[C@H]1C=C[C@@H](NC(=O)C2CCOCC2)[C@@H](CO)O1)Nc1ccc(-c2ccccc2)cc1,-5,-10,0.4,i,-1.0
CCC(=O)Nc1ccc2c(c1)OC[C@H](C)N(C(=O)C1CC1)C[C@@H](C)[C@@H](OC)CN(C)C2=O,-7,-4,0.1,i,-0.9
C[C@@H]1CCCCO[C@H](CN(C)CC2CCCCC2)[C@H](C)CN([C@H](C)CO)C(=O)c2cc(NC(=O)Nc3ccc(F)cc3)ccc2O1,-35,-54,6.5,i,6.1
O=C(C[C@@H]1CC[C@H](NC(=O)c2ccc(F)cc2)[C@H](CO)O1)NCCc1ccccc1,-1,6,-0.5,i,-0.6
CCCNC(=O)C1(C)CCCN(CCC(=O)c2ccccc2)C1 (stereo not given),16,5,-0.7,i,0.3
O=C(C1CC1)N1CC2(C1)[C@H](c1ccccc1)[C@@H](CO)N2CCC(F)(F)F,1,-3,-4.4,i,-2.0
COc1ccc(S(=O)(=O)N(C)C[C@H]2Oc3cc(C4=CCCC4)ccc3S(=O)(=O)N([C@@H](C)CO)C[C@H]2C)cc1,0,-2,-1.8,i,-1.5
COc1ccc(S(=O)(=O)Nc2ccc3c(c2)CC(=O)N([C@H](C)CO)C[C@H](C)[C@H](CN(C)S(C)(=O)=O)O3)cc1,6,10,-0.5,i,-0.4
COc1ccc(NC(=O)Nc2ccc3c(c2)C(=O)N([C@H](C)CO)C[C@H](C)[C@@H](CN(C)S(=O)(=O)c2ccccc2)OCCCC[C@H](C)O3)cc1,0,4,0.6,i,-1.0
O=C(Nc1ccccc1F)N1CCCCN2[C@H](CO)[C@@H](c3ccc(C#Cc4cccnc4)cc3)[C@H]2C1,-9,0,7.1,i,-1.9

# Structural class, the entries above with an NH in an aromatic ring (4)
SMILES,rRNA inh HTS,rRNA inh HTS OD600,rRNA inh HTS RFP,FGF22 binding,AF4-AF9 inh
OC(Cc1ccccc1Br)c1ncc(-c2ccc(Cl)cc2)[nH]1 (stereo not given),-61,-77,-23,+,1.4
Fc1ccc(CCNc2ncnc3[nH]ncc23)cc1,-4,-5,-6.4,i,-0.8
S=c1[nH]nc2ccc3ccccc3n12,-3,5,-0.9,i,-1.2
COc1ccc2c3c([nH]c2c1)[C@H](CO)N(Cc1ccccc1F)CC31CCN(C)CC1,4,10,3.6,i,16

# (list continues)
SMILES,rRNA inh HTS,rRNA inh HTS OD600,rRNA inh HTS RFP,FGF22 binding,AF4-AF9 inh
Cc1noc(C)c1S(=O)(=O)Nc1ccc2c(c1)CC(=O)N([C@H](C)CO)C[C@@H](C)[C@@H](CN(C)Cc1ccc(C(=O)O)cc1)O2,1,10,3.2,i,-2.0
CCN1CCN(c2ccc(Cl)cc2NC(=O)c2ccco2)CC1,-9,1,1.3,i,2.3
CCCN1[C@@H]2Cn3c(ccc(-c4cccnc4)c3=O)[C@H]1[C@@H](C(=O)NC1CCC1)[C@@H]2CO,2,4,-0.9,i,-0.9
Cc1ccc(C)c(C(=O)COC(=O)c2c(-c3ccccc3)noc2C)c1,-17,-16,4.5,i,-2.3
COc1ccc(-c2cnc3c(c2)C(=O)N([C@H](C)CO)C[C@H](C)[C@H](CN(C)C(=O)Cc2ccccn2)O3)cc1,5,11,-0.8,i,-5.7
CC(C)NC(=O)N(C)C[C@@H]1OCCCC[C@@H](C)Oc2ccc(NC(=O)Nc3cccc4ccccc34)cc2C(=O)N([C@H](C)CO)C[C@@H]1C,-2,2,1.4,i,-11
C[C@H](CO)N1C[C@H](C)[C@H](CN(C)C(=O)Cc2ccccc2)Oc2ncc(-c3ccc(F)cc3)cc2C1=O,-5,-3,-1.8,i,-2.8
CO[C@H](CN(C)Cc1cc(F)ccc1F)[C@H](C)CN(C(=O)Nc1ccc(F)cc1)[C@@H](C)CO,-8,-16,0.2,i,0.3
CC(=O)c1ccc(OCC(=O)Nc2cccc(C(=O)Nc3c(C)n(C)n(-c4ccccc4)c3=O)c2)cc1,4,-1,-1.9,i,1.9
COCCCNC(=O)CC1C[C@H](C(=O)N2CCCCC2)[C@@]2(CCc3ccccc3)c3[nH]c4ccc(OC)cc4c3CCN2C1=O (stereo not given in full),7,12,1.5,i,2.2
C[C@H](CO)N1C[C@H](C)[C@@H](CN(C)Cc2ccccc2F)Oc2ncc(C3=CCCC3)cc2C1=O,-3,4,2.1,i,4.5
COCC(=O)Nc1ccc2c(c1)C(=O)N(C)[C@H]1CC[C@H](CC(=O)Nc3ccc(F)cc3)O[C@@H]1CO2,0,0,-2.4,i,-4.2
Cc1noc(C)c1NC(=O)N1C[C@H](O)COC[C@@H]2O[C@H](CC(=O)NCC3CC3)CC[C@H]21,2,16,-0.7,i,-1.6
CO[C@@H]1CN(C)C(=O)c2ccc(NC(C)=O)cc2OC[C@@H](C)N(C(=O)CN2CCOCC2)C[C@@H]1C,-1,1,0.5,i,0.0
C[C@H](CO)N1C[C@H](C)[C@@H](CN(C)Cc2cccnc2)OCc2ccccc2-c2c(n(C)c3ccccc23)C1=O,-8,-9,14,i,4.3
Cc1c(C2Nc3ccccc3C2C)[nH]c2ccccc12 (stereo not given),-59,-84,-21,i,13
C[C@@H]1CN([C@@H](C)CO)C(=O)c2cccc(NC(=O)Nc3ccc4c(c3)OCO4)c2O[C@H]1CN(C)Cc1ccc(Oc2ccccc2)cc1,-2,3,0.3,i,3.7
CC(C)CC#Cc1cnc2c(c1)C(=O)N([C@H](C)CO)C[C@@H](C)[C@@H](CN(C)C(=O)Nc1cccc(F)c1)O2,-2,-1,3.4,i,1.4
CC(C)NC(=O)N[C@H]1CC[C@H](CC(=O)NCCN2CCCC2)O[C@@H]1CO,-1,-3,-2.4,i,-0.9
C[C@H]1CN([C@@H](C)CO)C(=O)c2cccc(NC(=O)Nc3ccc(F)cc3)c2O[C@@H]1CN(C)S(=O)(=O)c1ccc(F)cc1,-4,-14,2.5,i,1.0
C[C@@H]1CCCCO[C@H](CN(C)C(=O)Nc2cccc3ccccc23)[C@@H](C)CN([C@H](C)CO)C(=O)c2cc(NC(=O)Nc3ccc4c(c3)OCO4)ccc2O1,5,10,-0.1,i,2.6

# Complete entries as entered above. Order of values: rRNA inh HTS, rRNA inh HTS OD600, rRNA inh HTS RFP, FGF22 binding, AF4-AF9 inh
# `CO[C@@H]1CN(C)C(=O)c2ccc(NC(C)=O)cc2OC[C@@H](C)N(C(=O)CN2CCOCC2)C[C@@H]1C` in the list: -1, 1, 0.5, i, 0.0
# `CC(C)CC#Cc1cnc2c(c1)C(=O)N([C@H](C)CO)C[C@@H](C)[C@@H](CN(C)C(=O)Nc1cccc(F)c1)O2` in the list: -2, -1, 3.4, i, 1.4
# `C[C@@H]1CCCCO[C@H](CN(C)C(=O)Nc2cccc3ccccc23)[C@@H](C)CN([C@H](C)CO)C(=O)c2cc(NC(=O)Nc3ccc4c(c3)OCO4)ccc2O1` in the list: 5, 10, -0.1, i, 2.6

# Screens from PubChem.

# This is a subset, so the mix of outcomes need not match the whole.
